Vif TR-FRET = inhibitors of Vif binding to APOBEC3G peptide, primary screen, biochemical, TR-FRET, GST-Vif 1-94, biotin-A3G peptide, dose response retest (AID 1117319) | TR-FRET GST-Vif / biotin-A3G peptide binding; higher % means a stronger effect; test concentration not given here; strong numbers were not always called active | Virion infectivity factor (Human immunodeficiency virus type 1 group M subtype B (isolate … | 0.57% of 260,000 active | inhibition, %; hits with a dose series show IC50 in µM;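 active means above the screen mean plus three standard deviations and confirmed in dose response; inconclusive means results disagree or hit not tested in dose response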;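 further: Vif residues 1-94 fused to GST binding biotinylated APOBEC3G peptide 110-148; 0% = full assay without inhibitor and 100% = GST in place of GST-Vif; retest series ran down from 100 µM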
HNF4A DNA FP = change in binding of human HNF4A to DNA, primary screen, biochemical, fluorescence polarization, FITC-DNA; Hepatocyte nuclear factor 4-alpha (Homo sapiens), P41235; 1 h; activity change, % at 10 µM; 0.3% of 360,000 active; AID 1224865, 2016; in the data active means activity change above about 30%, passing the limit was not always enough;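 further: controls were the assay level and a saturating level of protein; the project sought stronger binding though the title names inhibitors; some compounds called inactive have numbers as strong as hits; positive values seem to mean higher polarization but the record does not say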
Target sequence (P41235 whole entry, looked up): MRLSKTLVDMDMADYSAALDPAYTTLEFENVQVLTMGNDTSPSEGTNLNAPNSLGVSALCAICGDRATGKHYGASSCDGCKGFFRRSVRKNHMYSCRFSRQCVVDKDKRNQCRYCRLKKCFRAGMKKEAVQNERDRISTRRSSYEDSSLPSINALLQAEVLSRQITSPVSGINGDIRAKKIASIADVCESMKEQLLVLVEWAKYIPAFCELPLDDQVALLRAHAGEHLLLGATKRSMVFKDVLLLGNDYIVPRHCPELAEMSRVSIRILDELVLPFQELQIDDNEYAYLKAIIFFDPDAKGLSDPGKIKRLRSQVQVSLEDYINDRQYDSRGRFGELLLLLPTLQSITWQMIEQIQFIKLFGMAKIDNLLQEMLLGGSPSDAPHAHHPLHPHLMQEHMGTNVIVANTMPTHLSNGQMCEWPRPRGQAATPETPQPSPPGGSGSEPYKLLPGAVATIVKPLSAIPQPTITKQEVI
B2AR ag = beta2AR agonists driving receptor internalization, primary screen, cell-based, FAP fluorogen, flow cytometry; Beta-2 adrenergic receptor (Homo sapiens), P07550; Am2.2-beta2AR cells; reference of the scale not given here; response, % (no concentration beside the values); 0.43% of 340,000 active;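 active means response above a set limit, near 3 SD of response in nonfluorescent compounds, cut at about 42% in these data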;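 further: stock transfer was 100 nL into about 11 µL; a reference agonist was the positive control; negative values mostly stem from fluorescent compounds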
Target sequence (P07550 whole entry, looked up): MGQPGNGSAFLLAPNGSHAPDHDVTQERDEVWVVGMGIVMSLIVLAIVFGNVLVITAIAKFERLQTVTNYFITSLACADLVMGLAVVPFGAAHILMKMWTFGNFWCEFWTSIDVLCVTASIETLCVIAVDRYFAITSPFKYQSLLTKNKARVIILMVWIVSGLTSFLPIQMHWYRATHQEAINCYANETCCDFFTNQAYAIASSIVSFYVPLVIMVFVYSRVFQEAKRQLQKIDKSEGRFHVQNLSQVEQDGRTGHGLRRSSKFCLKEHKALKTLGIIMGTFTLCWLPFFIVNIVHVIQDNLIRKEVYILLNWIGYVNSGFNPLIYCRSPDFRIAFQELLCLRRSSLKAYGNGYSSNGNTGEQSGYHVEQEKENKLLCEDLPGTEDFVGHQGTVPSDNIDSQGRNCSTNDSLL
LANA-H2B inh = blockers of LANA interaction with H2A/H2B – biochemical, FP readout, HTS, primary screen; Protein LANA1 (Human herpesvirus 8 type P (isolate GK18)), Q9QR71; cell-free LANA-H2A/H2B peptide, fluorescence polarization; inhibition, % (test concentration not listed); 0.6% of 320,000 active; in the data active means inhibition mostly above about 10%, no sharp cut-off; inactive means mostly below about 6.7%;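 further: stock transfer was 7.5 nL into about 10 µL; 0% = median of vehicle wells and 100% = median of positive control wells; one replicate is shown; the record names a cut of 25% in any replicate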
Calb FLC = C. albicans growth inhibition with fluconazole, primary screen, CaCi-2 strain, Alamar Blue fluorescence. C. albicans CaCi-2 (fluconazole-resistant clinical isolate) + fluconazole, 48 h. growth inhibition, % (no concentration beside the values). 0.57% of 300,000 active. AID 1979, 2009;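 active means most replicates above 75%; inconclusive means exactly half above 75%; inactive means most below 75%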;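 further: all wells also contain fluconazole at 8 µg/ml as a sub-toxic cotreatment; 0% = median of DMSO wells and 100% = median of geldanamycin control wells; wells of about 8 µL received 7.5 nL stock; the first replicate is given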
RanGTP-Impb inh = inhibitors of RanGTP-importin-beta interaction, primary screen, biochemical, FRET, CFP-Ran, YFP-importin-beta, homogeneous; cell-free CFP-Ran/YFP-importin-beta FRET ratio; inhibition, % (test concentration not listed); 1.1% of 300,000 active; AID 2216, 2009;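 active means most replicates above 15%; inconclusive means exactly half above 15%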;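 further: 0% = DMSO wells and 100% = Ran loaded with GDP instead of GTP; wells of about 40 µL received 100 nL stock; the first replicate is given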
ALR inh = inhibitors of human ALR sulfhydryl oxidase, primary screen, biochemical, H2O2 detection, HRP-luminol luminescence, single point | FAD-linked sulfhydryl oxidase ALR (Homo sapiens), P55789 | purified ALR, DTT oxidation | inhibition, % (concentration not given with the values) | 3.8% of 290,000 active | AID 485317, 2010;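 active means mean and each replicate at 75% or more; inconclusive means only one of the two met; inactive means neither met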;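 further: stock transfer was 7.5 nL into about 7.5 µL; 0% = neutral wells and 100% = wells with inactivated enzyme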
Target sequence (P55789 whole entry, looked up): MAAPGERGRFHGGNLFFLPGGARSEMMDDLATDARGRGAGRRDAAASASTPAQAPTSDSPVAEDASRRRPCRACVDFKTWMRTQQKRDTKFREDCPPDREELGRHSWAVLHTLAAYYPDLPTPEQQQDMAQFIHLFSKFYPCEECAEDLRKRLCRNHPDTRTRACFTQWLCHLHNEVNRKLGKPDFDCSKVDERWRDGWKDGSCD
* marks the source's active call; other numbers are inactive results; ? = inconclusive; · = no result given.

SMILES	Vif TR-FRET	HNF4A DNA FP	B2AR ag	LANA-H2B inh	Calb FLC	RanGTP-Impb inh	ALR inh
Cn1c(=O)c2cc3ccccc3nc2n(C)c1=O	?	-2.9	-1	5.0	1	4.2	0
O=C(NC(=S)Nc1cccc2cccnc12)c1ccccc1	0%	-0.3	-2	-3.3	18	?	-8
COc1ccc(CNC(=O)CCS(=O)(=O)c2ccc3c(c2)NC(=O)C(C)S3)cc1 (centres undefined)	·	-2.1	-5	-0.8	-11	-2.2	-1
CC1CCCCN1C(=O)CSc1nnc2c(n1)[nH]c1ccc(F)cc12 (centres undefined)	·	-1.6	-5	-2.9	-7	-0.9	-3
COc1ccc(N2C(=O)CC(Sc3nccc(C)n3)C2=O)cc1 (centres undefined)	-7%	-0.8	-7	-3.9	·	2.4	-3
CN(C)C(=O)CCc1ccc2c3c([nH]c2c1)[C@]1(CCC2CCCC2)[C@@H](C(=O)N2CCOCC2)C[C@H](CC(=O)NCc2ccco2)C(=O)N1CC3	2%	0.9	15	·	·	·	·
Cc1c(-c2cccc(Cl)c2)nc2ccccc2c1C(=O)NC1CC1	·	3.4	0	2.9	2	·	-18
COc1ccccc1NC(=O)Cn1nnc(C(=O)NCc2ccc3c(c2)OCO3)c1N	4%	1.0	-2	2.9	-1	-1.1	-10
Cc1ccc(-c2cc(C(F)(F)F)n3ncc(C(=O)N4CCCc5ccccc54)c3n2)cc1	2%	1.9	-23	·	3	4.9	·
Cc1ccc(S(=O)(=O)Nc2c(O)c3ccccc3oc2=O)cc1	-7%	-2.7	0	-5.0	4	-1.1	·
CCCCCCNC(=O)C(C(=O)OCC)C1CCCCC1 (centres undefined)	-5%	2.2	-4	-1.4	-2	-4.5	1
CC(=O)Nc1nonc1NC(=O)c1ccc(F)cc1	15%	2.1	2	-2.7	0	-0.6	1
CCn1cc(CNC(=O)c2cc(COc3ccc(F)cc3F)on2)cn1	-4%	1.9	-3	0.7	-6	1.1	3
CC#CCC(CC#CC)c1nc2ccccc2c(=O)n1N	-5%	-4.2	-1	-4.7	34	-0.2	-4
CCCOc1ccccc1N1C(=O)CC(N2CCOCC2)C1=O (centres undefined)	-2%	1.8	-6	2.1	·	·	-3
O=C(Nc1cc(S(=O)(=O)N2CCOCC2)ccc1O)c1ccc2c(c1)S(=O)(=O)c1ccccc1C2=O	-3%	-4.6	8	5.2	-13	?	·
COc1ccc(/C=C/C(=O)NCCN=C2NS(=O)(=O)c3ccccc32)cc1	-7%	-4.5	7	1.0	-4	-0.9	-19
O=C(Cn1cncc1-c1ccc([N+](=O)[O-])cc1)Nc1cccc2ccccc12	?	-0.7	8	8.9	1	3.2	·
NC(=O)COc1cc2oc(=O)c3c(c2cc1Cl)CCCC3	·	-1.0	2	4.6	26	?	-7
C/C(=N\NC(=S)NCCc1ccccc1)c1ccc(C#N)cc1	?	2.1	-2	-1.3	10	?	-4
COc1ccc(-c2sc(Nc3ccccc3)n[n+]2C)c(C)c1C	·	-3.8	4	-2.8	-5	0.9	8
Cc1cccc(C(=O)NNS(=O)(=O)c2ccc(F)cc2)c1	-1%	-1.8	14	4.8	3	-2.2	8
Cn1cccc1-c1cc(C(=O)N/N=C/C=C/c2ccccc2)[nH]n1	-3%	0.1	-13	-1.7	6	-1.3	3
Cc1cccc(N(C)C(=O)CN2C(=O)COc3ccc(S(=O)(=O)N4CCCCCC4)cc32)c1	·	0.1	1	0.4	8	0.8	-2
CCCOc1ccc(-c2nc(C#N)c(NCC3CCCO3)o2)cc1 (centres undefined)	-3%	2.1	-8	-5.8	-4	1.7	20

Part of the list above in order of heavy-atom count, lowest first:
SMILES	Vif TR-FRET	HNF4A DNA FP	B2AR ag	LANA-H2B inh	Calb FLC	RanGTP-Impb inh	ALR inh
NC(=O)COc1cc2oc(=O)c3c(c2cc1Cl)CCCC3	·	-1.0	2	4.6	26	?	-7
COc1ccc(/C=C/C(=O)NCCN=C2NS(=O)(=O)c3ccccc32)cc1	-7%	-4.5	7	1.0	-4	-0.9	-19
Cc1ccc(-c2cc(C(F)(F)F)n3ncc(C(=O)N4CCCc5ccccc54)c3n2)cc1	2%	1.9	-23	·	3	4.9	·

(further entries)
SMILES	Vif TR-FRET	HNF4A DNA FP	B2AR ag	LANA-H2B inh	Calb FLC	RanGTP-Impb inh	ALR inh
COc1cc(OC)cc(N(C(=O)c2ccco2)C(C(=O)NC2CCCC2)c2ccc(N3CCOCC3)cc2)c1 (centres undefined)	·	-2.1	1	4.0	-5	0.0	0
CCCCn1c(SCC(=O)NNC(=O)c2ccccc2)n[nH]c1=O	·	1.2	1	-0.9	·	·	3
Cc1ccc(Nc2ncnc3c2nnn3Cc2ccccc2)cc1	4%	0.3	2	-5.3	-5	-1.0	0
O=C(O)COc1ccccc1C(Nc1ccccn1)c1cc(Cl)c2cccnc2c1O (centres undefined)	?	-3.7	0	0.3	-2	0.1	·
CC(NC(=O)C(=O)N1CCOCC1)C(c1cccs1)N1CCN(c2ccccc2F)CC1 (centres undefined)	-5%	2.5	0	3.4	-8	0.1	15
CSc1ccccc1NC(=O)C(=O)c1c[nH]c2ccccc12	6%	5.0	3	1.7	-3	-3.5	·
COCCCN(C(=O)Nc1ccc(C)c(C)c1)C(C)c1ccccn1 (centres undefined)	2%	5.5	0	0.8	-8	6.9	-11
Cc1cc(C(=O)COc2ccccc2Cl)c(C)n1C1CC1	·	0.0	4	2.6	·	·	·
O=C1CCC([N+](=O)[O-])C(c2cccc(Br)c2)N1 (centres undefined)	-4%	3.6	-5	2.6	-14	-0.7	·
Cc1cc(C)n2nc(N)c(N=Nc3ccccc3)c2n1	-10%	-1.8	-11	-3.2	5	1.9	-2
COc1cccc(CN2CCN(C3CCN(c4cccc(C)c4C)CC3)CC2CCO)c1 (centres undefined)	?	-2.8	6	2.8	1	?	·
Cc1nn(-c2ccccc2)c(C)c1/C=C/C(=O)OCC(=O)N(C)C1CCS(=O)(=O)C1 (centres undefined)	·	1.4	0	-2.2	-10	1.4	-3
CCn1c(SCc2cccc(OC)c2)nc2ccccc2c1=O	-7%	1.4	1	-4.8	1	?	-4
O=C(NC(=S)Nc1cccc2c(O)cccc12)c1ccccc1[N+](=O)[O-]	·	-1.1	5	1.2	2	?	31
COC(=O)c1ccc(CSc2nnc(-c3ccncc3)o2)cc1	9%	1.9	13	-0.9	-9	-3.0	-12
Cc1ccc(-c2csc3ncnc(SCC(N)=O)c23)cc1	12%	5.0	-4	-0.6	-14	-5.4	-2
COc1cccc(CN(C)CC(=O)Nc2cccc(C(F)(F)F)c2)c1OC	2%	-0.4	-4	5.5	0	-0.4	-36
Cn1c(CNC(=O)c2ccccc2F)nnc1SCC(=O)Nc1nnc(C2CC2)s1	·	-1.6	-1	1.4	6	-1.8	-9
COc1ccccc1NC(=S)NNC(=O)c1ccc(Cl)cc1Cl	?	2.2	1	-7.5	?	0.9	·
COc1ccc(C2=CC(=O)CCC2)cc1	·	-0.4	0	2.0	-10	2.6	-6
O=C(Nc1cc(C(F)(F)F)ccc1N1CCOCC1)c1ccc(F)cc1	32%	0.4	-10	-4.1	3	3.0	-6
CCc1cc2c(=O)c(-c3nc4ccccc4[nH]3)coc2c(CN2CCCCC2C)c1O (centres undefined)	·	-0.3	-12	-3.9	-1	-4.2	-1
CC1CCN(C2CCN(S(=O)(=O)c3ccc(F)cc3)CC2)CC1	2%	3.1	0	5.8	-5	-5.9	-4
COc1ccc(Cl)cc1C(=O)Nc1ccccc1N1CCN(C(=O)C(C)C)CC1	25%	-0.8	-9	0.6	39	2.0	-8
O=C(O)C1C2CCC(O2)C1C(=O)Nc1ccccc1Br (centres undefined)	·	-0.3	-5	2.8	0	-1.4	3
(listing goes on)
SMILES	Vif TR-FRET	HNF4A DNA FP	B2AR ag	LANA-H2B inh	Calb FLC	RanGTP-Impb inh	ALR inh
COc1ccc(OC)c(S(=O)(=O)NCc2cccnc2)c1	0%	2.7	-4	-0.3	-1	-4.0	-3
CCOc1ccc(C=NCC(O)c2ccccc2)cc1 (centres undefined)	1%	-4.4	0	1.0	-4	-0.5	-5
CC(Cc1c[nH]c2ccccc12)C(=O)O (centres undefined)	?	-32	-3	-2.7	-7	7.2	-14
COc1ccc(C(=O)NC2CCCc3ccccc32)cc1OC1CCN(C(C)=O)CC1 (centres undefined)	·	8.2	26	-1.1	-1	-0.8	-11
CC(=O)N[C@H](Cc1c[nH]c2ccccc12)C(=O)O	·	-4.1	-6	-0.7	·	?	-5
CCn1nccc1C(=O)Nc1ccc(Cl)cc1Cl	-6%	-1.4	-3	-2.0	11	0.1	-7
COc1cccc(S(=O)(=O)NCC(=O)Nc2ccc(C(C)(C)C)cc2)c1	?	1.2	-2	-5.6	-5	4.2	-3
CC(C)c1cccc(-c2ccc3c(c2)S(=O)(=O)c2cccc(C(=O)NCc4ccccc4Cl)c2C3=O)c1	·	1.5	0	1.3	·	·	-5
Cc1ccc(S(=O)(=O)NCCC(=O)Nc2nnc(C)s2)cc1	18%	1.8	-5	·	14	3.6	·
CN(C=O)CP(=O)(O)CN1CCCCC1	-8%	·	·	·	-1	4.1	·
CC(=O)OCC1=C(C(=O)O)N2C(=O)C(NC(=O)Cn3nc(C(F)F)c(Cl)c3C)C2SC1 (centres undefined)	19%	-13	1	2.7	-24	1.2	-10
O=C(CN1C(=O)COc2ccc(S(=O)(=O)N3CCCC3)cc21)Nc1cccc(F)c1	4%	-0.6	5	4.8	1	3.6	-3
Cc1c(Cl)cccc1Nc1nc(N)nc(CSc2ncccn2)n1	-5%	5.5	-20	-3.2	-3	1.5	5
CCc1nc(SCC(=O)Nc2ccc(Br)cn2)n[nH]1	-2%	-0.7	-3	-4.7	8	-0.5	-11
CCn1c(SCC(N)=O)nnc1-c1ccc2c(c1)OCO2	14%	-3.9	3	-1.0	-3	-1.9	-3
CCNC(=S)N1CCN(c2ccc([N+](=O)[O-])cc2)CC1	1%	-0.9	0	-0.9	7	4.6	-8
COc1ccccc1N1CCN(C(c2cccs2)C(C)NC(=O)c2ccncc2)CC1 (centres undefined)	3%	-1.6	-1	-1.8	-1	-3.5	·
COCCNC(=O)CCC(=O)NNc1nc2ccccc2c2nc(C)nn12	4%	-4.1	-10	1.0	-1	2.9	1
CN1CCN(CC(=O)Nc2cccc([N+](=O)[O-])c2)CC1	33%	-3.5	-1	5.2	33	2.9	-9
Cc1occc1-c1nnc(SCC(=O)c2c[nH]c3ccccc23)n1C	6%	-0.4	4	-2.4	·	·	-9
CCn1nnc(-c2ccccc2NC(=O)c2cnccn2)n1	1%	-1.1	-1	4.1	-4	0.0	-11
CC1CCC(NC(=O)c2cc(S(=O)(=O)N(C)C)ccc2N2CCCC2)CC1 (centres undefined)	-2%	-0.2	-4	-1.2	-13	-0.6	-9
O=C(Nc1ccccn1)c1ccc(Cl)s1	0%	0.8	-2	-7.5	-13	2.7	-2
c1ccc(-c2ccccc2OCCn2cncn2)cc1	?	2.9	2	-3.0	-3	-1.3	-22
CC1(C(=O)Nc2nccs2)Cc2ccccc2C(=O)O1 (centres undefined)	2%	0.0	-6	3.4	-2	-2.0	-10
COc1ccc(/C=C/CN2CCN(Cc3ccccc3)C(CCO)C2)cc1 (centres undefined)	69%	11	8	0.7	-48	2.1	·
Cc1ccc(S(=O)(=O)NC2=NCN(C3CCCCC3)CN2)cc1	21%	2.1	-2	2.8	4	1.7	3
Cc1nc2ccccc2c(=O)n1/N=C/c1ccc2ccccc2c1O	3%	1.3	3	2.9	-2	2.8	-15

Source: PubChem BioAssay (several laboratories)

Rows were taken by chance; 6.3% or so of the library scored in one or more.
